# Assay outcomes from PubChem.
# KCNQ2 inh: KCNQ2 channel blockers in CHO-K1 cells – cell-based, FluxOR thallium flux, B-score, primary screen (AID 2156). 20 min; stronger effect = lower value; only compounds with negative scores are shown here; some inactives read as strong as hits. hit rate 1.1% among 310,000. B-score at 10 µM;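 active means fluorescence ratio B-score at most minus 3 library SDs, with starting brightness B-score within 2 library SDs, cut at about -5.5 in these data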
# Target sequence (O88943 whole entry, looked up): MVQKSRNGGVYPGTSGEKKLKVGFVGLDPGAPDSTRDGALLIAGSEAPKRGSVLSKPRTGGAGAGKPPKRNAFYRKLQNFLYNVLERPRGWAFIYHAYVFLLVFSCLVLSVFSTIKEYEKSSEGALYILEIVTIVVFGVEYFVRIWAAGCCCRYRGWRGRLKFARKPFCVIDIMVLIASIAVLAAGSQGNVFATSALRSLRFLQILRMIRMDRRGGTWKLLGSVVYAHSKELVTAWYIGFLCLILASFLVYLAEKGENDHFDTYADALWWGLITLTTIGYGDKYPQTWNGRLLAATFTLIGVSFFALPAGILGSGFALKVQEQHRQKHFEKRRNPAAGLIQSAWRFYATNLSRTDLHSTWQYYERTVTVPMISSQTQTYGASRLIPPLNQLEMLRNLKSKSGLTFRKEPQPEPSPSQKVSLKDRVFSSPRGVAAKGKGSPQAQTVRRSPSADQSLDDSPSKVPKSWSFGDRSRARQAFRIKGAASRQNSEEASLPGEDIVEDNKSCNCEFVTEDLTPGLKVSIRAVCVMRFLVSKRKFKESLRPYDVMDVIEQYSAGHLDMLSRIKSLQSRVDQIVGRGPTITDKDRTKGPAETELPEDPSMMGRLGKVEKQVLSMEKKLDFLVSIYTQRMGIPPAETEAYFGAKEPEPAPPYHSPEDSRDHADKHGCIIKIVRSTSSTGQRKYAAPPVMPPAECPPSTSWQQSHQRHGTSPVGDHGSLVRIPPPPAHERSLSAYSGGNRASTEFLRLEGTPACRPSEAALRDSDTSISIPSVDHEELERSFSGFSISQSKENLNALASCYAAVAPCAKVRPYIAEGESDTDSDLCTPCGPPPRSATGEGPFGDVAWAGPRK
# KCNQ2 inh baseline: second read-out of KCNQ2 inh, no call of its own (marks repeat the call); B-score; measured here: initial fluorescence intensity artifact check;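 brightness before thallium and not channel activity; 0 = typical well and far values either way flag optical interference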
# Active calls of the source: *; i = inactive. These rows are one share of the data; count on the stated rates, not on these rows.
structure,KCNQ2 inh,KCNQ2 inh baseline
O=C(NC1CCCCCCC1)C1=COCCO1,i,-0.16
COc1ccccc1CNc1ncnc2cc(Cl)ccc12,i,0.68
CCOc1ccc(CCNC(=O)c2ccc3c(=O)[nH]c4c(C(=O)NC(C)C)sc(=S)n4c3c2)cc1,i,-1.7
Fc1ccc(-c2nnn(Cc3ccccc3Cl)n2)cc1,i,-0.81
Cc1ccc(C(=O)O)cc1-c1ccc(C=C2C(=O)c3ccccc3C2=O)o1,i,0.91
CNC(=O)/C(=C\c1ccc([N+](=O)[O-])cc1)NC(C)=O,i,0.07
CCN(C(=O)c1cc(S(=O)(=O)N2CCOCC2)cn1C)c1cccc(C)c1,i,0.88
C=CCn1c(SCC(=O)c2ccc(OC)cc2)nnc1-c1cc2cccc(OC)c2o1,i,1.1
COc1ccc(NC(=O)Nc2cccc(Cl)c2Cl)c(OC)n1,i,0.2
COc1ccc2c(n1)Sc1nc3ccccc3nc1N2,i,2.7
COc1cc(C(=O)NCCN2CCOCC2)cc(OC)c1OC,i,0.79
CCN(CC)S(=O)(=O)c1cccc(C(=O)OCC(=O)N2CC(=O)Nc3ccccc32)c1,i,0.77
COc1ccc(NS(=O)(=O)c2cc(NC(=O)c3ccco3)ccc2N2CCCC2)cc1,i,-0.9
CCN(CC)C(=O)CSc1nc2ccccc2c(=O)n1CCC(=O)N1CCN(c2ccccc2)CC1,i,1.5
Cc1ccc(S(=O)(=O)N2CCN(C(=O)C3CCCC3)CC2)cc1C,i,-0.24

# The final 3 records of the section above are carried over, then new ones follow.
structure,KCNQ2 inh,KCNQ2 inh baseline
COc1ccc(NS(=O)(=O)c2cc(NC(=O)c3ccco3)ccc2N2CCCC2)cc1,i,-0.9
CCN(CC)C(=O)CSc1nc2ccccc2c(=O)n1CCC(=O)N1CCN(c2ccccc2)CC1,i,1.5
Cc1ccc(S(=O)(=O)N2CCN(C(=O)C3CCCC3)CC2)cc1C,i,-0.24
CN(C)S(=O)(=O)N(CC(=O)N1CCOCC1)c1ccccc1,i,4.1
O=C(/C=C/c1cc(Br)ccc1O)c1ccco1,-7.7*,-0.39*
CC(=O)c1ccc(N/N=C(/C(N)=O)C2=NC(C)(C)Cc3ccccc32)cc1,i,-0.44
Cc1cccc(CN2CCC(CNC(=O)CCNC(=O)Cn3ccc4ccccc4c3=O)CC2)c1,i,0.14
COc1cccc(C2=CC(c3ccc(OC)c(OC)c3OC)n3nnnc3N2)c1 (configuration not stated),i,0.1
O=C(CC1SC(=O)N(c2ccccc2)C1=O)Nc1ccc(Cl)cc1 (configuration not stated),i,-0.42
Cc1c(C(=O)OC(C)C(C)C[N+](C)(C)C)oc2ccccc12 (configuration not stated),i,-2.6
CCOc1cc(C(=O)OCC(=O)Nc2c(C)cccc2C)ccc1OCC(=O)N1CCOCC1,i,1.1
Clc1cccc(CSc2ccc(-c3ccco3)nn2)c1,i,0.77
Cc1ccccc1Cn1cc(NC(=O)c2cc3nc(-c4ccco4)cc(C(F)(F)F)n3n2)cn1,i,-0.28
Cc1ccccc1C(=O)Nc1nnc(-c2ccco2)o1,i,0.97
N#Cc1ccc(C(=O)Nc2nnc(-c3ccccn3)o2)cc1,i,-0.04
COc1ccc(NS(=O)(=O)c2cc(NC(=O)/C=C/c3ccccc3OC)ccc2N2CCCCC2)cc1,i,2.1
COC(=O)c1c(NC(=O)C(C)(C)C)sc2c1C(C(=O)OC)CC2 (configuration not stated),i,-1.4
O=C(COC(=O)c1ccc(=O)[nH]c1)Nc1cccc(S(=O)(=O)N2CCOCC2)c1,i,0.01
COC(=O)c1cc(NS(=O)(=O)c2ccc(N3CCCCC3)c([N+](=O)[O-])c2)cc(C(=O)OC)c1,i,-0.45
CCS(=O)(=O)N1CCN(Cc2ccncc2)CC1,i,1.6
Cc1ccc(S(=O)(=O)N2CCC(=O)N(C(COCc3ccc(Cl)cc3)C(C)C)CC2)cc1 (configuration not stated),i,-2.2
O=C1NC(=Nc2ccccc2)SC1(CO)CO,i,-2.5
CC(C)(O)C#Cc1ccc(CN2CCN(C3CCCC3)C(CCO)C2)cc1 (configuration not stated),i,0.25
O=C(NCc1ccccc1)c1ccc(S(=O)(=O)NCc2ccco2)cc1,i,-0.95
COc1ccc(N(CC(=O)N2CCOCC2)S(C)(=O)=O)cc1OC,i,-0.77
COc1ccc(OCCn2cncn2)cc1,i,-1.3
Cc1ccc2nc(-c3ccc(NC(=O)CN(c4ccccc4C)S(C)(=O)=O)cc3)sc2c1,i,0.02
Cc1oc2ccc(O)c(CN3CCOCC3)c2c1C(=O)c1ccc(Cl)cc1,i,0.01
O=C(NN=C1CCCC1)c1ccc(Br)cc1,i,1.5
O=C(NCc1cnc2ccccn12)C1CCC(=O)N(Cc2ccccc2F)C1 (configuration not stated),i,-0.09
NNC(=O)c1cn2ccccc2n1,i,-0.2
O=c1cc(NCC2CCCO2)[nH]c(=O)n1-c1ccc(Cl)cc1 (configuration not stated),i,0.42
COc1ccc(-c2c[n+]3c(n2-c2ccccc2)SCC3)cc1,i,0.01
N#CCCn1cc(C(=O)O)c(-c2cccs2)n1,i,0.41
Oc1c(Br)cc(/C=N/NC(=S)NCC2CCCO2)cc1Br (configuration not stated),i,1.7
COc1ccc(C(CNC(=O)c2ccccc2C)N2CCCC2)cc1 (configuration not stated),i,-0.01
O=C(NCCN1CCOCC1)c1ccc(/C=C2\Sc3ccccc3N(Cc3ccc(F)cc3)C2=O)cc1,i,-1.2
COC(=O)/C=C1\S/C(=N/NC(=O)c2ccccc2)NC1=O,i,-0.08
COc1ccc(OC)c(S(=O)(=O)N/N=C\c2cn(CC(N)=O)c3ccccc23)c1,i,-1.3
Cc1ccc(N=C(N)N=C(N)N)cc1,i,-0.02
CC(C)CCNC(=O)c1cn(CC(C)C)c(=O)c2c1c1ccccc1n2C,i,0.06
CCCCNC(=O)C1CCC(CNc2nc(=S)[nH]c3ccccc23)CC1 (configuration not stated),i,0.45
COC(=O)c1c(C)[nH]c(C(=O)OC(C)C(=O)N(C)C2CCCCC2)c1C (configuration not stated),i,-0.13
COc1ccc(C2/C=C\CN(C(=O)Nc3ccc(C(F)(F)F)cc3)CC(=O)N2Cc2ccc(F)cc2)cc1 (configuration not stated),i,-0.13
COc1ccc(NC(=S)N2CCC(NC(=O)c3cccc(C)c3)CC2)cc1,i,1.3
O=C(NCc1ccccn1)c1ccccc1OCc1ccc(F)cc1,-6.4*,0.01*
COc1ccc(-c2nc(CN3CCCCC3c3nccn3C)c(C)o2)c(C)c1C (configuration not stated),i,0.09
O=C(NCCCn1ccnc1)c1ccc(S(=O)(=O)N2CCOCC2)cc1,i,2.5

# Individual results from above:
# O=C(NCc1ccccn1)c1ccccc1OCc1ccc(F)cc1 in KCNQ2 inh: -6.4*
# CC(C)CCNC(=O)c1cn(CC(C)C)c(=O)c2c1c1ccccc1n2C in KCNQ2 inh baseline: 0.06
# O=C(NCCCn1ccnc1)c1ccc(S(=O)(=O)N2CCOCC2)cc1 in KCNQ2 inh baseline: 2.5
# N#CCCn1cc(C(=O)O)c(-c2cccs2)n1 in KCNQ2 inh baseline: 0.41
# COC(=O)c1c(C)[nH]c(C(=O)OC(C)C(=O)N(C)C2CCCCC2)c1C (configuration not stated) in KCNQ2 inh baseline: -0.13

# Next part
structure,KCNQ2 inh,KCNQ2 inh baseline
CC(=O)CCc1ccc(OCCCOc2cccc3cccnc23)cc1,i,0.1
S=C(NCCCN1CCOCC1)N1CCN(c2ccccc2)CC1,i,-0.22
CC(C)(C)c1n[nH]c(=S)n(N)c1=O,i,0.01
CC(CCc1ccccc1)NC(=O)c1cccs1 (configuration not stated),i,-0.47
C=CCn1c(CNC(=O)c2ccco2)nnc1SCC(=O)N1c2ccccc2Sc2ccccc21,i,0.45
O=C1CC(/C=C/c2cccnc2)=Nc2ccccc2N1,i,-0.93
Cc1cc(C)c(NC(=O)/C=C\C(=O)O)c(Cl)c1,i,-1.2
O=C(Nc1cc(Cl)cc(Cl)c1)N1CCCC1,i,-0.12
O=C(C1CC1)N(Cc1ccco1)c1nc(-c2ccccc2)cs1,i,-1.7
CCn1c(SCC(=O)Nc2ccc(N3CCOCC3)cc2)nnc1-c1ccco1,i,0.24
CN=C1SC(CC(=O)Nc2cccc(Cl)c2Cl)C(=O)N1C (configuration not stated),i,0.63
O=C1[C@@H]2Cc3c([nH]c4ccccc34)CN2C(=O)CN1CCO,i,-0.3
CCCn1c(C)cc(C(=O)Cn2nnc3ccccc3c2=O)c1C,i,-0.18
O=C(Nc1ccc(N2CCCCC2)c(Cl)c1)c1ncn[nH]1,i,-0.2
COc1cccc(SCC2(O)CCN(C(=O)c3ccc(Cl)cc3)CC2)c1,i,0.48

# Exported with values under each structure: entries from further up.
# Fields: KCNQ2 inh | KCNQ2 inh baseline
S=C(NCCCN1CCOCC1)N1CCN(c2ccccc2)CC1
 : i | -0.22
CC(C)(C)c1n[nH]c(=S)n(N)c1=O
 : i | 0.01
CC(CCc1ccccc1)NC(=O)c1cccs1 (configuration not stated)
 : i | -0.47
C=CCn1c(CNC(=O)c2ccco2)nnc1SCC(=O)N1c2ccccc2Sc2ccccc21
 : i | 0.45

# The results go on.
structure,KCNQ2 inh,KCNQ2 inh baseline
CCN(CC)CCNC(=O)c1ccc(NS(=O)(=O)c2ccc3c(c2)OCCO3)cc1,i,0.68
CS(=O)(=O)c1ccc(SCC(=O)NC2CCS(=O)(=O)C2)c([N+](=O)[O-])c1 (configuration not stated),i,0.07
COc1cc(OC)cc(C(=O)N2CCN(C(=O)c3cccc(F)c3)CC2)c1,i,1.2
NC(=O)c1cccc(NC(=O)CCCCC(=O)Nc2cccc(C(N)=O)c2)c1,i,1.1
C=C(C)CNC(=S)Nc1cccc(N)n1,i,-0.18
CCN(CC)C(=O)c1c(-c2ccccc2)oc2ccc(OC)cc12,i,0.51
Cc1ccccc1-c1nc(CS(=O)(=O)CC(=O)NC2CCCCC2C)c(C)o1 (configuration not stated),i,-1.1
C/C(=N\NC(=O)c1cc(C)[nH]n1)c1ccc(-c2ccccc2)cc1,i,-0.63
Cc1ccc(/C=N/NC(=O)C[n+]2ccccc2)s1,i,0.29
CC(Sc1nnc(-c2ccncc2)n1C)C(=O)Nc1nccs1 (configuration not stated),i,-0.04
O=C(Cc1cccs1)N(c1ccccc1)C1C=CS(=O)(=O)C1 (configuration not stated),i,-3.3
Cc1ccc(SCC(=O)Nc2ncc(C)s2)cc1,i,-0.66
CCCn1c(SCC(=O)Nc2ccc(S(=O)(=O)N(C)C)cc2)n[nH]c1=O,i,0.68
Cc1ccc(C)c(NS(=O)(=O)c2cc(C(=O)NCC3CCCO3)ccc2C)c1 (configuration not stated),i,-0.14
NC(=O)c1nsc(C(=O)N(c2ccccc2)C(C(=O)NC2CCCCC2)c2ccc(O)cc2)c1N (configuration not stated),i,-2.5
O=C(c1cc(COc2ccc(F)cc2Cl)on1)N1CCc2ccccc2C1,i,0.36
Cc1cccc(C)c1NC(=O)C1(NC(=O)c2cnccn2)CCCCC1,i,0.01
COc1cc(OC)cc(C(=O)N2CCN(C(=O)COc3ccc4ccccc4c3)CC2)c1,i,0.92
O=C1C2C(C(=O)N1CCN1CCN(Cc3ccc([N+](=O)[O-])cc3)CC1)[C@H]1C=C[C@@H]2C1 (some centres not stated),i,-0.25
N=C1SCC(=O)N1c1nc(-c2ccccc2)cs1,i,0.06
COc1ccccc1NC(=O)C1CCCN(S(=O)(=O)c2ccccc2)C1 (configuration not stated),i,0.01
CCN1CCCC1CNC(=O)c1ccc(Sc2ccccc2Cl)c([N+](=O)[O-])c1 (configuration not stated),i,0.15
CCOc1nc(NCCN2CCOCC2)nc(Nc2ccc([N+](=O)[O-])cc2)n1,i,1.6
Cc1ccc(NC(=S)N(CCN(C)C)Cc2cc3cccc(C)c3[nH]c2=O)cc1,i,-0.3
CC(=O)Nc1ccc(S(=O)(=O)Nc2cccc(-c3cn4c(n3)SCC4)c2)cc1,i,1.8
Cc1ccc(-c2c[nH]c(=S)n2-c2ccccc2)cc1,i,0.74
CCOc1ccc(S(=O)(=O)N(CC(=O)NCC2CCCO2)c2ccc(F)cc2)cc1 (configuration not stated),i,1.2
CC/C(C)=N/Nc1ccc(S(=O)(=O)N2CCCC2)cc1[N+](=O)[O-],i,2.5
Cc1c2cc(O)c(=O)cc-2oc2cc(O)c(O)cc12,i,100
C=CC1=C2C=C(C3CC3)N(C3CC3)C=C2C(=O)C(C)(OC(=O)c2ccco2)C1=O (configuration not stated),i,2.3
Cc1ccc(NC(=O)CCC(=O)N/N=C/c2cc([N+](=O)[O-])ccc2O)cc1,i,2.3
Cc1c[n+]([O-])ccc1Oc1ccc([N+](=O)[O-])cc1,i,-1.2
Oc1ccccc1Cn1c(-c2ccccc2O)nc2ccccc21,i,0.07
COc1ccc(CCNC(=O)/C=C\c2ccccc2)cc1OC,i,-1.9
COC(=O)c1cc(-c2ccc(OC)cc2)on1,i,-0.06
CC(=O)N1C(=O)/C(=C2\SC(=S)N(c3c(C)n(C)n(-c4ccccc4)c3=O)C2=O)c2ccccc21,i,2.1
CCCCN(N=Nc1nonc1OC)c1nonc1OC,i,-0.21
CCOc1ccccc1N(C(=O)CNS(=O)(=O)c1ccccc1)C(CC)C(=O)NCc1ccco1 (configuration not stated),i,-0.91
O=C(CN1C(=O)NC2(CCCC2)C1=O)OCCOc1ccc(Br)cc1,i,3.1
CC(=O)c1cccc(N(C(=O)c2cnccn2)C(C(=O)NCc2ccccc2)c2ccco2)c1 (configuration not stated),i,-0.47
O=C(OCc1ccc(Cl)cc1)c1cnccn1,i,-0.31
O=C(c1ccc(-n2cncn2)c([N+](=O)[O-])c1)N1CCN(S(=O)(=O)c2ccc(F)c(F)c2)CC1,i,0.89
O=S(=O)(NCCC1=CCCCC1)c1ccc(Br)cc1,i,0.06
